# liver stage: exo-erythrocytic parasite development inhibition – imaging, Malaria Box, P. yoelii, HepG2-A16-CD81EGFP, dose response (AID 602156); P. yoelii liver stage in HepG2-A16-CD81EGFP, imaging; first-round cut-off not given here; calls after a first round at 10 µM; hits with a dose series show IC50 in µM; actives 4.8% (n = 5,700); in the data active = a potency from the dose series;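 note: infected cells exposed to compound for 48 hours before fixation; stained parasite area by imaging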
# * = called active by the depositor; i = inactive.
structure | liver stage
CCCCN(CC(=O)Nc1cc(C(C)(C)C)nn1-c1ccc(Cl)cc1)C(=O)c1ccc(OC)cc1 | i
CCOc1ccc(C(=O)C[N+]2=C(CC)c3ccc(C)n3CC2)cc1 | i
O=C(NCCc1ccc(-c2ccccc2)cc1)c1ccc(NS(=O)(=O)C(F)(F)F)cc1 | i
Cc1ccc(CNC(=O)CSc2nc3ccsc3c(=O)n2CCCCCC(=O)NCCc2ccccc2)cc1 | i
CSc1cccc(NC(=O)C2C3C=CC4(O3)C2C(=O)N(Cc2ccc(F)cc2)C4C(=O)NC2CCCC(C)C2C)c1 (stereo not drawn) | i
CCN1CCN(C/C=C/c2ccccc2[N+](=O)[O-])CC1 | i
CCCCN(C)Cc1ccc2c(NC(=O)c3ccc(C)s3)c(C(=O)OC)sc2n1 | i
CC1CCCCN1CCCNc1ncc(C(=O)NCc2ccccc2)c(NCC2CCCCC2)n1 (stereo not drawn) | i
CC1=C(C=CC(C)C=NNC(=O)c2ccncc2)C(C)(C)CCC1 (stereo not drawn) | i
CCOc1cc(C2CC(=O)NC3=C2C(=O)CC(C)(C)C3)ccc1OC(C)C (stereo not drawn) | i
CCOC(=O)c1c(C)n(-c2ccccc2)c2ccc(OC(=O)c3ccccc3NC(=O)C(C)C)cc12 | i
CCCn1c(=O)c(C(=O)NCC[N+](CC)(CC)CC)c(O)c2ccccc21 | i
COc1cc(OC)cc(C(=O)N(CCCC(C)Nc2cc(OC)cc3cccnc23)Cc2ccc(Cl)cc2)c1 (stereo not drawn) | i
CCc1ccccc1N=C1c2c(cccc2[N+](=O)[O-])C(=O)C1C(C)=O (stereo not drawn) | 2µM*
c1ccc(-c2csc(Nc3nc4cc5c(cc4s3)OCO5)n2)nc1 | 0.079µM*

# A run of entries of the results above, as a working copy:
structure | liver stage
CC1=C(C=CC(C)C=NNC(=O)c2ccncc2)C(C)(C)CCC1 (stereo not drawn) | i
CCOc1cc(C2CC(=O)NC3=C2C(=O)CC(C)(C)C3)ccc1OC(C)C (stereo not drawn) | i
CCOC(=O)c1c(C)n(-c2ccccc2)c2ccc(OC(=O)c3ccccc3NC(=O)C(C)C)cc12 | i
CCCn1c(=O)c(C(=O)NCC[N+](CC)(CC)CC)c(O)c2ccccc21 | i
COc1cc(OC)cc(C(=O)N(CCCC(C)Nc2cc(OC)cc3cccnc23)Cc2ccc(Cl)cc2)c1 (stereo not drawn) | i

# Continuation.
structure | liver stage
COc1ccccc1C(=O)NN=C(C)c1cccnc1 | i
COc1c2occc2c(OC)c2c(=O)cc(C(Cl)(Cl)Cl)oc12 | i
CCn1c(SCCNC(=O)CC(C)C)nc(-c2ccccc2)c1-c1ccccc1 | i
CCc1ccc2[nH]c(=O)c(CN(CCCN(CC)CC)C(=S)NCCCN(C)C)cc2c1 | i
Cc1[nH]c(=O)[nH]c(=O)c1S(=O)(=O)Nc1ccc2oc(-c3ccncc3)nc2c1 | i
COc1ccc(N(CCCNC(=O)CCl)C(=O)Nc2cccc(Cl)c2)cc1 | i
CC1CCCC(NC(=O)C2N(CCN3CCCCC3C)C(=O)C3C(C(=O)Nc4cccc(Cl)c4)C4C=CC32O4)C1C (stereo not drawn) | i
O=C(NC(Cc1ccccc1)c1nnc(SCc2ccc(F)cc2)n1-c1ccc(Cl)cc1Cl)C1CCCCC1 (stereo not drawn) | i
COc1ccc(C2CC(=O)C3=C(C2)NC(=O)CC3c2ccc([N+](=O)[O-])cc2)cc1OC (stereo not drawn) | i
Cc1ccc(NC2=C(c3ccc(C(F)(F)F)cc3)C(=O)c3ccccc32)cc1C | i
CCc1cc(C(=O)N2CCC[C@@H]3CN(C(=O)c4ccc(F)cc4)CC[C@@H]32)n(C)n1 | i
CN(C)c1ccc(/C=C/C=C/c2cc[n+](C)cc2)cc1 | i
COCCOC(=O)C1=C(C)NC2=C(C(=O)CC(c3ccc(OC)c(OC)c3)C2)C1c1cccc(Cl)c1Cl (stereo not drawn) | i
O=C(CCN1C(=O)C2CCCCC2C1=O)N1CCc2ccccc2C1 (stereo not drawn) | i
COc1ccc(N2C(N)=NC(N)=NC23CCCC3)cc1 | i

# Other results follow.
structure | liver stage
COc1ccc2cc(C)c3nnc(SCC(=O)N4CCN(C(=O)c5ccco5)CC4)n3c2c1 | i
Cc1ccc(-c2cc(N3CCCC3CO)n3nccc3n2)cc1 (stereo not drawn) | i
CCc1ccc(C(C)=NNc2nc(-c3ccccc3)cc(=O)[nH]2)cc1 | i
CCCCN(C(=O)c1ccccc1C)c1nc(-c2cc(OC)ccc2OC)cs1 | i
CC(CNC(=O)c1ccccc1)C(=O)OCC(=O)[C@@]12OC(C)(C)O[C@@H]1CC1C3CCC4=CC(=O)C=C[C@]4(C)[C@@]3(F)[C@@H](O)C[C@@]12C (stereo partly drawn) | i
CC(C)(C)CC(C)(C)Nc1c(-c2ccccc2OC(=O)C2CCCCC2)nc2ccccn12 | i
CN(C)CCNC(=O)c1cc2c(-c3ccc(Cl)cc3)nn(C)c2s1 | i
Cc1[nH]n(-c2ccccc2)c(=O)c1N=Nc1c(Br)cc(Br)cc1Br | i
COc1ccc(OC)c(NC(=O)c2cnn3c(C(F)(F)F)cc(-c4ccc(OC)c(OC)c4)nc23)c1 | i
OCC(O)COc1cccc2ccccc12 (stereo not drawn) | i
NCC(=O)N1CCn2c(nc(-c3ccccc3)c2Nc2ccc3c(c2)OCO3)C1 | 0.22µM*
c1cc(C2=NCCN2)ccc1OCCCOc1ccc(C2=NCCN2)cc1 | i
Cc1ccc(C)c(Nc2nc3c(s2)CCCC3)c1 | i
CCCCN(CC(=O)N1c2ccccc2-n2cccc2C1c1ccc(OC)cc1)C(=O)Nc1cccc(F)c1 (stereo not drawn) | i
CN(C)c1ccc2c(c1)Sc1cc(N(C)C)ccc1N2C(=O)c1ccccc1 | i

# Later entries.
structure | liver stage
O=C(COC(=O)c1ccccc1O)c1ccc(Br)cc1 | i
Cc1c2c(cc3c1ccc1ccccc13)C[N+]1(CCCCC1)C2 | i
COc1ccc2nc3ccccc3c(N)c2c1 | i
O=C1CC(=O)Nc2cc(S(=O)(=O)NC3CCCCCCC3)ccc2N1 | i
CCCc1cc2c(=O)c(-c3ccc4c(c3)OCO4)c(CC)oc2cc1OC(C)C | i
CC(C)CNC(=O)c1cc(NC(=O)c2cccs2)ccc1N1CCc2ccccc2C1 | i
Cc1c(C(=O)N2CCC(C)CC2)sc2ncn(CC(=O)N3CCN(c4ccccn4)CC3)c(=O)c12 | i
CCNC(=O)NCCSc1nc(-c2ccc(OC)cc2)c(-c2ccc(OC)cc2)n1CC | i
C=CCNc1ncnc2c1c(-c1ccccc1)cn2-c1ccccc1 | i
CCOC(=O)c1[nH]c(CSC#N)c(C(C)=O)c1C | i
Cc1ccc(-c2c[n+](Cc3ccc(Cl)cc3)c3n2CCC3)cc1 | i
Cc1ccc(NC2=C(c3ccc(C(F)(F)F)cc3)C(=O)c3ccccc32)cc1F | i
CCOc1ccc(CN2CCN(CC(O)COc3ccc(OCC(O)CN4CCN(Cc5ccc(OCC)cc5)CC4)cc3)CC2)cc1 (stereo not drawn) | i
CCCCCC1CCCc2c1[nH]c1cc(Cl)ccc1c2=O (stereo not drawn) | i
CCC(Cc1cnc2nc(N)nc(N)c2n1)c1ccc(C(=O)N[C@@H](CCC(=O)O)C(=O)O)cc1 (stereo partly drawn) | i

# (further entries)
structure | liver stage
Nc1nc(N)c2cc(S(=O)(=O)N3CCSCC3)ccc2n1 | i
CCCOC(=O)C1=C(C)NC2=C(C(=O)CC(c3ccc(Cl)cc3)C2)C1c1ccc(Br)cc1 (stereo not drawn) | i
O=C1NC(=S)NC1=Cc1ccc(C(F)(F)F)cc1 | i
Cc1cccc(NC(=O)c2ccc3ccccc3n2)n1 | i
c1ccc(CNc2nc(Nc3ccccc3)nc3ccccc23)cc1 | 0.15µM*
Cc1cc(N2CCN(CC=Cc3ccccc3)CC2)n2c(nc3ccccc32)c1C#N | i
CN(C)CCNc1ncnc2c1[nH]c1ccc(Br)cc12 | i
CSc1nc2sc3c(c2c(=O)n1-c1ccccc1)CCN(CCc1ccccc1)C3 | i
CCOc1ccc(C(=O)C(C)[n+]2cc(-c3ccc(OC)cc3)n3c2CCC3)cc1 (stereo not drawn) | i
Cc1ccnc(Nc2nc(-c3ccccn3)cs2)c1 | 0.096µM*
C[n+]1ccc(/C=C/c2ccc(Br)cc2)cc1 | i
CC(=O)OC1CCC2(C)C(CCC3C2CCC2(C)C3CC(O)C2(O)C(C)=O)C1 (stereo not drawn) | i
CC(=O)c1ccc(-n2cc(C(=O)C(C)Oc3ccc(Cl)cc3Cl)nn2)cc1 (stereo not drawn) | i
COc1cccc(-c2cc(C(=O)Nc3cc(Cl)ccc3O)on2)c1 | i
C1=C(c2ccccc2)CCN(c2ncnc3c2nc2n3CCCCC2)C1 | i

# New compounds follow
structure | liver stage
CC(=O)N1CC(=NNC(=O)C(C)Nc2c(C)cccc2C)c2ccccc21 (stereo not drawn) | i
Clc1ccc(Nc2nc(NCc3ccco3)c3ccccc3n2)cc1 | i
CCCN(CCC)C(=O)Cn1ccc(=N)c2ccccc21 | i
CCCCC(=O)NC(c1ccccc1)c1ccc2cccnc2c1O (stereo not drawn) | i
CCN1C(=O)N(CCC(C)C)C2(CCN(Cc3cc(Cl)ccc3O)CC2)C1=O | i
COc1cccc(C(Nc2cc(C)ccn2)c2ccc3cccnc3c2O)c1 (stereo not drawn) | i
CC(C)CC[n+]1ccccc1C=Cc1ccc(N(C)C)cc1 | i
CCCN(CC(=O)Nc1cc(C(C)(C)C)nn1-c1cccc(C)c1C)C(=O)C(C)(C)C | i
C=CCN1CCN(C(c2ccccc2F)c2nnnn2Cc2ccco2)CC1 (stereo not drawn) | i
O=[N+]([O-])c1cccc(-c2ccc(C=NNc3nc4ccccc4[nH]3)o2)c1 | i
CCc1cc(=O)n(C)c(SC(CC)C(=O)Nc2ccc(F)cc2)n1 (stereo not drawn) | i
CCC(CC)CN1CCC(O)(c2ccc3oc(C(=O)Nc4ccc(OC)cc4)cc3c2)CC1 | i
CCCCCN(C(=O)c1cccc(F)c1)C(CC)c1nc2ccccc2c(=O)n1-c1ccc(Cl)cc1C (stereo not drawn) | i
CC1CCCCN1CCCNc1ncc(C(=O)NCCc2ccccc2)c(NCC2CCCCC2)n1 (stereo not drawn) | i
O=C(CSc1nc(-c2ccccc2Cl)ns1)Nc1ccc2c(c1)OCCO2 | i

# Five entries drawn at random from those above:
structure | liver stage
CC(=O)N1CC(=NNC(=O)C(C)Nc2c(C)cccc2C)c2ccccc21 (stereo not drawn) | i
CCN1C(=O)N(CCC(C)C)C2(CCN(Cc3cc(Cl)ccc3O)CC2)C1=O | i
CCC(CC)CN1CCC(O)(c2ccc3oc(C(=O)Nc4ccc(OC)cc4)cc3c2)CC1 | i
CCCCC(=O)NC(c1ccccc1)c1ccc2cccnc2c1O (stereo not drawn) | i
COc1cccc(C(Nc2cc(C)ccn2)c2ccc3cccnc3c2O)c1 (stereo not drawn) | i

# (cont.)
structure | liver stage
CCCCCCCc1ccc(-c2nnc(-c3ccc([N+](=O)[O-])cc3)o2)cc1 | i
COC(=O)c1c(-c2ccccc2Cl)csc1N | i
COC(=O)[C@@H]1C[C@@H](NC(=O)c2ccc(OC)cc2OC)CN1Cc1ccc(C(F)(F)F)cc1 | i
C=CCNC(=O)c1cc(OCc2ccccc2)c(OCc2ccccc2)c(OCc2ccccc2)c1 | i
COc1ccccc1NC1=CC(=NS(=O)(=O)c2cccs2)c2ccccc2C1=O | i
COc1ccc(C2C(C(=O)Nc3cc(C)on3)c3ccccc3C(=O)N2C2CCCCC2)cc1 (stereo not drawn) | i
COc1cccc(OCCN2CCN(c3ncnc4c3cnn4-c3ccccc3)CC2)c1 | i
Cc1c(C)c2c(c(C)c1O)CC[C@](C)(CN1CCN(c3cc(N4CCCC4)nc(N4CCCC4)n3)CC1)O2 | i
Cc1ccc2[nH]c3c(NCCc4ccccc4F)ncnc3c2c1 | i
NC(=S)NN=CC(=NNC(N)=S)c1ccccc1 | i
O=C(NCCCCCCCCCCNC(=O)Nc1ccc(C2=NCCCN2)cc1)Nc1ccc(C2=NCCCN2)cc1 | i
CCc1ccccc1-n1c(C(C)N(C)C(=O)/C=C/c2ccc([N+](=O)[O-])cc2)nc2ccccc2c1=O (stereo not drawn) | i
CN[C@H]1C[C@@H]2O[C@](C)([C@H]1O)n1c3ccccc3c3c4c(c5c6ccccc6n2c5c31)C(=O)NC4 | i
Oc1ccc(Nc2ccnc3cc(Cl)ccc23)cc1 | i
CC(C)N1CCc2c(sc(NC(=O)C(C)(C)C)c2C(N)=O)C1 | i

# More records:
structure | liver stage
CCCCNCC(O)(c1ccc(Cl)cc1)c1ccc(Cl)cc1 | i
CCOc1c(Br)cc(C2C(C(=O)OC)=CN(C)C=C2C(=O)OC)cc1OC | i
CC[n+]1c(C=CN(C)c2ccccc2)sc2ccc(Cl)cc21 | i
CCN1C(=Cc2ccc3c4ccoc4ccc3[n+]2CC)C=Cc2c1ccc1occc21 | i
FC(F)(F)c1cccc(C=NNc2nc3ccccc3[nH]2)c1 | i
O=C(NN1CCOCC1)c1ccc(Br)cc1 | i
CCC(C)NC(=O)c1nn(-c2ccc(Cl)cc2)c(=O)c2ccccc12 (stereo not drawn) | i
COc1ccc(Nc2nc(NCc3ccccc3)c3ccccc3n2)cc1 | 0.31µM*
COc1ccc(C(=NO)C2CC2c2ccc(Cl)cc2)cc1 (stereo not drawn) | i
Cc1c2cnn(CC(=O)O)c(=O)c2c(C)n1Cc1cccc(Cl)c1 | i
COc1cc(Nc2cncc(-c3ccc(C(N)=O)cc3)n2)cc(OC)c1OC | i
Cc1ccn2c(NC(C)(C)CC(C)(C)C)c(-c3ccccc3OC(=O)C34CC5CC(CC(C5)C3)C4)nc2c1 | i
COc1ccc2c(C)nc(Nc3nc(C)cc(-c4ccccc4)n3)nc2c1 | 6.7µM*
CC1=C(C(=O)OCC(C)C)C(c2ccc(OCc3ccccc3)cc2)C2=C(CC(c3ccccc3)CC2=O)N1 (stereo not drawn) | i

# Only part of the results is shown; the hit share may differ from the screen's.
